Assay outcomes as filed in PubChem.
Calb biofilm kill – clotrimazole potentiators killing C. albicans biofilm, primary screen, 4-compound mixtures. 120,000 compounds, 0.02% hits. AID 1242, 2008. inhibition, % at 7.6 µM. C. albicans biofilm persisters + clotrimazole, fluorescence viability; primary screen in compound mixtures of four per well;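 active means inhibition above 30.3% in the primary screen of four-compound pools, then above 30% when the compound was retested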;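 further: compounds exposed to preformed 24 h biofilms for 48 h; the number belongs to the whole pool; some results filed as inactive read as strong as hits; inactives centre near 12; 0% = biofilm with clotrimazole alone and 100% = kill control; retested singly at about 60 µM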
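System: C. albicans CAF4-2 wild-type biofilms; Medium: RPMI/MOPS medium, pH 7.0; Reagent: Clotrimazole, 50 µg/mL; Times: biofilm formation 24 h, compound exposure 48 h, 37 °C; Detection: 2-h Alamar Blue fluorescence, 535/590 nm excitation/emission; Evaluation: percent inhibition of biofilm viability.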
Active calls of the source: *. The list is partial. The share of hits here may be higher or lower than overall.

SMILES | Calb biofilm kill
CCOC(=O)c1ccc(N2C(=O)C(CC(N)=O)N(CCc3ccc(OC)c(OC)c3)C2=S)cc1 (stereo unspecified) | -8
CC1=CC(C)(C)n2c(O)c(N=N)c3cc(C)cc1c32 | 16
CC(=O)NS(=O)(=O)c1ccc(NC(=O)/C=C/c2ccc(C)o2)cc1 | 2
CC(C)CNS(=O)(=O)c1ccc(OCC(=O)Nc2ccc3c(c2)OCCO3)cc1 | 10
Cc1ccccc1C(=O)NNc1ccc(-c2csnn2)cc1 | 15
O=C(O)CC(NC(=O)CCC1CCCCC1)c1cc([N+](=O)[O-])ccc1Cl (stereo unspecified) | 12
Cc1ccccc1NC(=O)NCC1CCN(C(=O)OC(C)(C)C)CC1 | 8
Cc1ccc(-n2nnc3c(=O)n(Cc4cc(C)ccc4C)cnc32)cc1 | 7
c1ccc(-c2noc(CN3CCc4sccc4C3)n2)cc1 | 9
COc1ccc(C(CNC(=O)c2ccc(S(=O)(=O)N(C)C)cc2)N2CCCCC2)cc1 (stereo unspecified) | 5
CC/C(=N/Nc1cccc(C)c1)c1cnnc(SC)n1 | 21
Cc1cc(C)n2ncc(/C(N)=N/OC(=O)c3ccccc3F)c2n1 | 16

Continued (three carried over from the part before).
SMILES | Calb biofilm kill
COc1ccc(C(CNC(=O)c2ccc(S(=O)(=O)N(C)C)cc2)N2CCCCC2)cc1 (stereo unspecified) | 5
CC/C(=N/Nc1cccc(C)c1)c1cnnc(SC)n1 | 21
Cc1cc(C)n2ncc(/C(N)=N/OC(=O)c3ccccc3F)c2n1 | 16
Cc1ccc(C(=O)NNC(=O)c2ccco2)cc1 | 13
Cc1cc(C)c2c(=O)[nH]c(SCC(=O)c3ccc(C)c(C)c3)nc2n1 | 15
CC(Oc1ccccc1F)C(=O)NN (stereo unspecified) | 15
COc1cc(/C=C(\C#N)C(=O)N2CCOCC2)cc(Br)c1O | 10
O=[N+]([O-])c1cccc(S(=O)(=O)NCCCN2CCOCC2)c1 | 12
CN(Cc1ccccc1)C(=O)COC(=O)c1cc(Cl)nc(Cl)c1 | 13
CCOC(=O)c1sc2nc(C(C)C)c3c(c2c1N)CCC3 | 0
COc1ccc(/C=C/C(=O)N2CCN(S(=O)(=O)/C=C/c3ccccc3)CC2)cc1OC | 24
COc1ccc2cc(Br)ccc2c1CC(=O)NCC1CCCO1 (stereo unspecified) | 10
N#CCSc1nc(-c2ccccc2)c2cc(Cl)ccc2n1 | -1
CCN(CC)C(=O)CN1C(=O)C2(NC(=O)c3ccccc3N2)c2ccccc21 (stereo unspecified) | 13
Oc1ccc(/C=N/Nc2ccnc3cc(Cl)ccc23)cc1O | 13
O=C(NCc1ccncc1)C(=O)NC1CC1 | 16
O=C(COC(=O)c1ccc([N+](=O)[O-])s1)NC(=O)NCc1ccccc1 | 2
CCOC(=O)N1CCN=C1SCc1ccc(Cl)c(Cl)c1 | 5
CN(C)/C=N/C(=S)Nc1cc(Cl)cc(Cl)c1 | -6
CCN(CC)CC(=O)Nc1ccc(-c2ccc(NC(=O)CN(CC)CC)c(OC)c2)cc1OC | 6
O=C(O)c1ccccc1CSc1ccccn1 | 15
CCCCCCCCCCCC(=O)N1CC(=O)NC(=O)C1 | 15
Cc1ccc(NC(=S)N(Cc2ccccc2)Cc2cccs2)c(C)c1 | 14
COc1ccc(-c2[nH]ncc2-c2cscn2)c(O)c1 | 22
CN(c1ccccc1)c1nc(N)c([N+](=O)[O-])c(N2CCOCC2)n1 | 5
COc1ccc(C(=O)C2CCCN(Cc3c(C)[nH]c4ccccc34)C2)c(OC)c1 (stereo unspecified) | 18
CCC(C)(C)NC(=O)C(c1ccncc1)N(C(=O)Cn1nnc2ccccc21)c1cc2c(cc1C(C)=O)OCO2 (stereo unspecified) | 8
CCCCCCOc1ccc(OC(=O)c2ccncc2)cc1 | 12
Cc1ccc(C(=O)N2CCN(S(=O)(=O)c3ccc(C)cc3)CC2)cc1 | 6
COCCCNC(=O)NC(=O)c1ccccc1 | 9
O=C(O)CCCC(=O)N1N=C(c2ccccc2)CC1c1ccc2nccnc2c1 (stereo unspecified) | 10
CC1=NN(C(N)=S)C(C)(C)C1 | 13
N#C/C(=C\c1c[nH]c2ccccc12)C(=O)Nc1ncc(Cc2ccc(Cl)cc2Cl)s1 | 15
Cc1cnn(C(=O)c2cc(-c3ccccn3)nc3ccc(Cl)cc23)c1 | 24
O=C(NCC1CCCO1)C1CCN(C2CCN(Cc3ccco3)CC2)CC1 (stereo unspecified) | 22
O=C(Nc1ccc(Cl)cc1)c1csc(Cc2ccccc2)n1 | 3
O=C(c1ccc(NS(=O)(=O)c2cccs2)cc1)N1CCN(c2ccccc2Cl)CC1 | 15
Cc1ccc(/C=C/C(=O)N2CCN(S(=O)(=O)/C=C/c3ccccc3)CC2)o1 | 13
O=[N+]([O-])c1ccc2c(c1)nc1n2CCCCC1 | 12
O=C(CSCc1ccc(Cl)cc1Cl)Nc1nccs1 | 16
Cc1nn(-c2ccccc2Cl)c(Cl)c1/C=C(\C#N)C(N)=O | 8
CCOCCCn1c(=S)[nH]c2cc(C(=O)NCC(OC)OC)ccc2c1=O | 10
CCOc1ccc(NC(=S)Nc2cccc3cnccc23)cc1 | 17
Cc1cc(C(=O)N/N=C2/CC(C)CC(C)(C)C2)c(C)o1 (stereo unspecified) | 8
CCO[C@H]1OC(C(=O)NCc2ccccc2)=C[C@@H](C)[C@@H]1CCCO | 13
CCOC(=O)c1cn(Cc2c(C)c(C)c(C)c(C)c2C)nn1 | 11
CSCc1nc2scc(-c3ccccc3)c2c(=O)[nH]1 | 6
COc1cc([N+](=O)[O-])cc(/C=N/NC(=O)c2cncc(Br)c2)c1O | 12
O=C(CCC(=O)c1cccs1)NCc1ccncc1 | 16
Cc1ccc(NC(=O)c2ccoc2C)cc1C | 13
CCOc1cc(/C=N/NC(=O)c2ccncc2)cc(Cl)c1OS(C)(=O)=O | 0

In a second layout: four of the compounds above.
canonical_smiles: O=C(c1ccc(NS(=O)(=O)c2cccs2)cc1)N1CCN(c2ccccc2Cl)CC1
- Calb biofilm kill = 15

canonical_smiles: CC(C)CNS(=O)(=O)c1ccc(OCC(=O)Nc2ccc3c(c2)OCCO3)cc1
- Calb biofilm kill = 10

canonical_smiles: N#CCSc1nc(-c2ccccc2)c2cc(Cl)ccc2n1
- Calb biofilm kill = -1

canonical_smiles: COc1ccc2cc(Br)ccc2c1CC(=O)NCC1CCCO1 (stereo unspecified)
- Calb biofilm kill = 10

(next part)
SMILES | Calb biofilm kill
Clc1ccc(-c2csc3ncnc(N4CCc5ccccc5C4)c23)cc1 | 9
O=C(N/N=C/c1ccc2c(c1)OCO2)c1cc(-c2ccccc2)nc2ccccc12 | 10
COc1ccc(NC(=S)N(Cc2cccnc2)Cc2ccco2)cc1 | 6
Cc1ccc(S(=O)(=O)N2CCCCC2)cc1NC(=O)c1ccc2ccccc2n1 | 0
O=C(CCCN1C(=O)/C(=C/c2cccc(Br)c2)SC1=S)Nc1cccnc1 | 7
O=C(c1ccccc1F)N1CCOCC1 | 0
c1cncc(CSc2ccc(-c3cccs3)nn2)c1 | 9
CN1CCC(NC(=O)Cc2c(F)cccc2Cl)CC1 | 15
COc1ccc(CNC(=O)CN2CCN(S(=O)(=O)c3cccs3)CC2)cc1OC | 13
CCN1CCN(C2=C(Cl)C(=O)N(Cc3ccccc3)C2=O)CC1 | 14
c1ccc(Oc2cccc3cccnc23)nc1 | 1
CSc1ccc(/C=C(\C#N)C(=O)NC2CCCCC2C)cc1 (stereo unspecified) | 14

Already shown: an excerpt of the list.
SMILES | Calb biofilm kill
CCOC(=O)c1ccc(N2C(=O)C(CC(N)=O)N(CCc3ccc(OC)c(OC)c3)C2=S)cc1 (stereo unspecified) | -8
CC1=CC(C)(C)n2c(O)c(N=N)c3cc(C)cc1c32 | 16

Further results follow:
SMILES | Calb biofilm kill
COCCNC(=O)CSc1nc2cc3c(cc2c(=O)n1CCCC(=O)NCc1ccc(OC)cc1)OCO3 | 17
Cc1nc2scc(-c3ccc(Cl)cc3)c2c(=O)n1N | 17
O=C(Nc1ccccc1)C1CCCN1/C=C/C(=O)C(F)(F)F (stereo unspecified) | 13
O=C(Oc1c(Br)cc(Br)c2cccnc12)N1CCCCC1 | 14
O=C(c1cc(-c2ccccn2)nc2ccc(Cl)cc12)N1CCN(CCc2ccccc2)CC1 | -3
O=c1[nH]c2cccnc2n(CCNc2ncc(C(F)(F)F)cc2Cl)c1=O | 13
CCOc1ccc(NC(=O)CSc2nnc(C)n2Cc2ccccc2)cc1 | 18
COc1cc(/C=C2\SC(=O)N(CCN)C2=O)ccc1OS(=O)(=O)c1cc(C)ccc1C | -6
C=CCn1c(SCC(=O)O)nc2sc(CC)cc2c1=O | 5
CC(=O)Nc1ccc(NC(=O)Cc2ccc(S(=O)(=O)N3CCCCC3)s2)cc1 | 15
COc1cc2nc(CN(C)Cc3ccc(SC)cc3)[nH]c(=O)c2cc1OC | 16
CCOC(=O)Cn1nc(C)c(NC(=O)c2cccc([N+](=O)[O-])c2)c1C | 22
CSc1nc(N2CCN(C)CC2)c2c(c1C#N)CC(C)(C)OC2 | 15
C=CCNC(=O)/C(C#N)=C/c1ccccc1OCc1ccc(C(=O)OC)cc1 | 13
COc1ccc(CCn2c(NN=C3CCCC3)nc3c2c(=O)[nH]c(=O)n3C)cc1 | 22
CC(C)(C)n1cnc2cc(NC(=O)c3cccs3)ccc21 | 21
O=[N+]([O-])c1cccc(/C=N/Nc2nc(N3CCCCC3)nc(N3CCCCC3)n2)c1 | 15
CCCn1c(=O)[nH]c(=O)c2c(C(F)(F)F)cc(-c3ccc(C)cc3)nc21 | 3
O=C(c1ccccc1)N(NC(=O)C(O)(c1ccccc1)c1ccccc1)c1cccc(F)c1 | 4
NS(=O)(=O)c1ccc(-n2ncc3c(=O)[nH]c(SCC(=O)Nc4nccs4)nc32)cc1 | 8
NNC(=O)c1sc2cc(C(F)(F)F)cnc2c1-c1cccs1 | 11
COc1ccc(/C(O)=C2/C(=O)C(=O)N(CC3CCCO3)C2c2ccc(O)c(OC)c2)cc1 (stereo unspecified) | 15
Cc1cc(C)n(CC(=O)N/N=C/c2ccc([N+](=O)[O-])s2)n1 | 16
Cc1cc(C=C2C(=O)c3ccccc3C2=O)c(C)n1-c1cccc(C(=O)O)c1 | 13
CN1/C(=C/C=C(C#N)C#N)C(C)(C)c2ccccc21 | 2
CCN(CC)S(=O)(=O)c1ccc(C(=O)NC(C)(C)C)cc1 | -10
N#Cc1cc(Sc2ccccn2)c([N+](=O)[O-])cc1C#N | 16
COc1ccc(CC(=O)OCC(=O)N2N=C(c3ccccc3)CC2c2ccc(OC)cc2)cc1 (stereo unspecified) | 10
O=C(CCl)NCCN1C(=O)S/C(=C\c2cccnc2)C1=O | 2
O=C(Nc1nnc(COc2ccccc2F)s1)Nc1ccccc1F | 19
CS(=O)(=O)N1CCc2cc(NC(=O)c3ccc(Cl)cc3Cl)ccc21 | 10
CC(NS(=O)(=O)c1ccc([N+](=O)[O-])cc1)C(=O)NN (stereo unspecified) | 24
COc1ccc(C(=O)C2CCCN(C(=O)c3cccnc3OC)C2)cc1F (stereo unspecified) | 4
Oc1cccc2c(NC(=S)Nc3ccc(SC(F)F)cc3)cccc12 | 12
Cc1cc(C)nc(SCc2ccc(C(=O)N/N=C/c3ccc(C(=O)O)cc3)cc2)n1 | -5
CC(=O)N(c1ccccc1)c1nc(/C=C/C(=O)O)cs1 | 4
